# HSV replic up: HSV replication enhancement. HSV replication augmentation in cells, fold increase. 220,000 compounds, 0.005% hits. AID 1956. maximum fold increase;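 active = peak rise of 1.5-fold or more in the series; tested in PC3 cells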;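 also: first round at 10 µM; read as green reporter fluorescence; hits show the peak of a series up to 25 µM; 1 = signal of infected wells without compound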
# GALR2 ag: activates the human galanin receptor 2 | O43603 | activation, %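 (tested at 5 µM)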 | 140,000 compounds, 0.48% hits | AID 803 | GALR2-expressing cells, agonist activation read-out;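 active = above mean plus 3 SD of all compounds, about 5% in these data, not always enough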;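 also: 0% = vehicle buffer wells and 100% = reference agonist at full effect; tested in CHO reporter cells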
# Target sequence (O43603 whole entry, looked up): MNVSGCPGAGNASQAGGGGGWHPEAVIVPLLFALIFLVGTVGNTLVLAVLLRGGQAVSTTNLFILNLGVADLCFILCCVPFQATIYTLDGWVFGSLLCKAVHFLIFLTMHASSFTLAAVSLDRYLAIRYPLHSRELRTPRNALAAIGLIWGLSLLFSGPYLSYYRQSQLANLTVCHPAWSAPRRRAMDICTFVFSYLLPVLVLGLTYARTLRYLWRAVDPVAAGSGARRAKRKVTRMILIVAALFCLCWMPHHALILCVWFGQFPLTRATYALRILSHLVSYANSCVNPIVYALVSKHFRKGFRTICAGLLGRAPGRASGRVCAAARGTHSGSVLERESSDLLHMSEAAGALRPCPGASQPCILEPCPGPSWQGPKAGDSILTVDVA
# RGS16-Gao HTS: regulators of human RGS16-Galphao interaction | O15492+P09471 | bead-based flow cytometry RGS16-Galphao binding, fluorescence; actives lie on both sides | binding response (% of control), % at 10 µM | 220,000 compounds, 0.38% hits | AID 1441;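 active = below 25% or above 175%, edge rows of some plates excepted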;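 also: Galphao activated by GDP with aluminum fluoride before binding; 100% = wells without compound and 0% = beads without RGS; some results beyond the cut were filed as inactive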
# Target sequence (O15492 whole entry, looked up): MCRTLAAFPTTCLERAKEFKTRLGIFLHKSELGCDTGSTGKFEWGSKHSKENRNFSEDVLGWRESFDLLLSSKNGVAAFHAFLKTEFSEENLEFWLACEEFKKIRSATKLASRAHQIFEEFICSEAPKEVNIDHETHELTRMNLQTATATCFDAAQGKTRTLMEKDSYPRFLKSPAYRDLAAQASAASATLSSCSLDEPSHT
# Target sequence (P09471 whole entry, looked up): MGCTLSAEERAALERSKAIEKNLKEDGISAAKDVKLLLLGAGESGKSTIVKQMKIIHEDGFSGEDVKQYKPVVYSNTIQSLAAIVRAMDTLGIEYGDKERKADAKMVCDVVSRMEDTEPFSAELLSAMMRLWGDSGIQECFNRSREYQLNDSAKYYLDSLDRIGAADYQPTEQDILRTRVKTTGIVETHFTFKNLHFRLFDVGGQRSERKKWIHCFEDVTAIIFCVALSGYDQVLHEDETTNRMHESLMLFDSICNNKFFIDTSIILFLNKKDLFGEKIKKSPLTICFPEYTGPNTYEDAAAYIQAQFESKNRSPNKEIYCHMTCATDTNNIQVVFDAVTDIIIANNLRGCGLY
# PKD1 inh: PKD1 (human) kinase inhibition. inhibition, %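 (about 10 µM by stock and volumes)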. Q15139. 200,000 compounds, 0.056% hits. PKD1 kinase fluorescence polarization assay. AID 797;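 active = inhibition of 50% or more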;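 also: controls were vehicle for no effect and a reference inhibitor for full effect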
# Insulin prom inh: TRM-6 insulin promoter activity inhibition; TRM-6 cells (human fetal islet line), insulin promoter-eGFP reporter, imaging; reporter expression induced with tamoxifen; inhibition, % at 2 µM; 130,000 compounds, 0.9% hits;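 active = inhibition above the mean plus 3 SD, with well images judged a real hit on visual review, cut at about 60% in these data, passing the limit was not always enough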
# Insulin prom inh cell count: second read-out of Insulin prom inh, no call of its own (marks repeat the call); normalized cell count, %; measured here: cell count, toxicity; reference of the scale not given here;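 cells exposed to compound for 48 h; stained nuclei by imaging scaled within each plate; lower means fewer cells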
# HSV replic up primary fold: recorded beside HSV replic up, whose call it bears; fold increase; compound at 10 µM; measured here: primary screen fold increase 10 uM; tested in PC3 cells;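 GFP signal in the first replicate; 1 = infected wells without compound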
# Active calls of the source: *; i = inactive; . = not tested or not shown.
Structure | HSV replic up | HSV replic up primary fold | GALR2 ag | RGS16-Gao HTS | PKD1 inh | Insulin prom inh | Insulin prom inh cell count
O=C(CN1CCN(C/C=C/c2ccccc2)CC1)Nc1ccc(F)cc1F | i | 0.96 | . | 104.3 | -0.4 | -50.0 | 181.2
CCN(CC)S(=O)(=O)c1ccc(NS(=O)(=O)c2cccc(C)c2)cc1 | i | 0.79 | -1.6 | 98.6 | 12.1 | . | .
CCN(CC)CCNC(=O)c1ccc(NC2=NC3CS(=O)(=O)CC3S2)cc1 (stereo unspecified) | i | 0.98 | -2.7 | 101.4 | 3.8 | . | .
CC(C)(C)c1ccc(-c2nc(-c3ccncc3)no2)cc1 | i | 1.02 | -2.1 | 22.9* | 1.8 | -25.8 | 286.4
COc1ccc(/C=C(\C#N)C(=O)OCCNC(=O)c2ccncc2)cc1 | i | 1.14 | . | 98.8 | -7.1 | . | .
CCCc1nc2ccccc2n2cc3c(=O)n(C)c(=O)n(C)c3c12 | . | . | -1.7 | . | -6.2 | . | .
O=C(COc1ccccc1C(=O)O)Nc1ccc(SC(F)F)cc1 | i | 0.96 | . | 98.9 | 3.1 | . | .
Cc1ccc(NC(=O)CN(C)CC(=O)NC2CCCc3ccccc32)cc1 (stereo unspecified) | i | 0.85 | . | 105.5 | . | . | .
COC(=O)c1ccc(CN2C(=O)C3CCCCC3C2=O)o1 (stereo unspecified) | i | 0.61 | . | 74.8 | -3.7 | 33.3 | 109.3
NS(=O)(=O)c1cccc(NC(=O)COC(=O)Cn2cnc3ccccc32)c1 | i | 1.11 | . | 99.6 | . | . | .
C[C@@H](CO)NC(=O)c1ccc2c3n(nc2c1)-c1ccccc1CO3 | i | 0.92 | . | 97.8 | . | . | .
O=S(=O)(c1ccc(Cl)c(S(=O)(=O)N2CCCC2)c1)N1CCCC1 | i | 0.89 | . | 102.8 | -2.6 | . | .
CCCCNC(=O)C1CC(c2cccc(F)c2)=NO1 (stereo unspecified) | i | 0.57 | . | 97.8 | . | . | .
COc1ccc(-c2nn(-c3ccccc3)cc2C(=O)OCC(=O)c2ccc(C)c([N+](=O)[O-])c2)cc1 | i | 0.91 | -0.6 | 103.8 | -1.3 | -34.5 | 97.3
CCCCC(=O)Nc1ccc(C(=O)NNC(=O)c2cccs2)cc1 | i | 0.88 | -0.9 | 97.1 | -6.2 | . | .
CN(C)c1nc(C(=O)NN)nc(N(C)C)n1 | i | 0.91 | -2.4 | 86.2 | 5.8 | . | .
COc1cccc2cc(S(=O)(=O)c3ccc(C)cc3)/c(=N/NS(=O)(=O)c3ccc(C)cc3)oc12 | i | 0.86 | . | 120.3 | -0.4 | . | .
COC(=O)C1=C(C)OC(N)=C(C#N)C1c1cc(OC)c(OCC(N)=O)cc1Cl (stereo unspecified) | i | 0.9 | -1.2 | 98.1 | -4.4 | -10.0 | 138.4
Cc1ccc(C(=O)CSc2nc(C)cc(=O)[nH]2)cc1 | i | 1.18 | 0.2 | 103.4 | 0.8 | -27.8 | 119.1
COC(=O)c1cccc(C23CC4(C2)[C@H](CN(Cc2cccnc2)[C@@H]4c2ccccc2)C3c2ccc(Cl)nc2)c1 (stereo partly specified) | i | 1.06 | . | 106.0 | . | . | .

# Reprinted from above (3 entries):
Structure | HSV replic up | HSV replic up primary fold | GALR2 ag | RGS16-Gao HTS | PKD1 inh | Insulin prom inh | Insulin prom inh cell count
O=C(CN1CCN(C/C=C/c2ccccc2)CC1)Nc1ccc(F)cc1F | i | 0.96 | . | 104.3 | -0.4 | -50.0 | 181.2
CCN(CC)S(=O)(=O)c1ccc(NS(=O)(=O)c2cccc(C)c2)cc1 | i | 0.79 | -1.6 | 98.6 | 12.1 | . | .
CCN(CC)CCNC(=O)c1ccc(NC2=NC3CS(=O)(=O)CC3S2)cc1 (stereo unspecified) | i | 0.98 | -2.7 | 101.4 | 3.8 | . | .

# Next part:
Structure | HSV replic up | HSV replic up primary fold | GALR2 ag | RGS16-Gao HTS | PKD1 inh | Insulin prom inh | Insulin prom inh cell count
CC(=NCCc1ccccc1)C1=C(O)C(c2ccccc2)OC1=O (stereo unspecified) | i | 0.98 | . | 91.0 | -3.3 | . | .
COc1ccc(-c2cc(C(F)(F)F)c(C#N)c(SCC(=O)O)n2)cc1OC | i | 0.95 | . | 101.7 | . | . | .
Cc1sc2ncnc(OCC(=O)N3CCN(S(=O)(=O)c4ccccc4)CC3)c2c1C | i | 0.97 | 0.8 | 101.1 | -3.1 | -29.7 | 119.7
O=c1c2cc(Cl)ccc2[nH]c(=S)n1Cc1ccccn1 | i | 0.93 | 0.0 | 102.2 | -4.3 | 39.4 | 137.2
CN(C)S(=O)(=O)c1ccc(-c2csc(-c3cccnc3)n2)cc1 | i | 0.99 | . | 102.8 | -9.7 | . | .
O=C(CC1CS(=O)(=O)CC1CC(=O)Oc1ccccc1F)Oc1ccccc1F (stereo unspecified) | i | 0.94 | -1.1 | 30.3 | -6.6 | 16.7 | 114.3
CC(O)c1nc2ccccc2n1C/C=C/c1ccccc1 (stereo unspecified) | i | 0.82 | -1.1 | 101.3 | -5.1 | . | .
CC(c1nnc(Sc2nnnn2-c2ccccc2)n1-c1ccc(F)cc1)N(C)C (stereo unspecified) | i | 0.9 | -0.2 | 101.4 | 1.0 | . | .
CCn1ncc(/C=C/C(=O)NCc2cn(C)nc2C)c1C | i | 0.84 | -2.3 | 92.3 | -5.6 | . | .
CC(=O)C1=C(O)C(=O)N(CCc2c[nH]c3ccccc23)C1c1cccc(O)c1 (stereo unspecified) | i | 1.12 | -1.7 | 99.2 | -5.0 | -21.4 | 101.3
CCOCC(=O)N1CCC(Cc2ccccc2)CC1 | i | 0.97 | . | 99.8 | -3.0 | . | .
O=c1[nH]ncc2c3ccccc3n(Cc3cccc(Cl)c3)c12 | i | 1.13 | . | 105.7 | -3.5 | 0.0 | 149.7
O=C1c2cccc3c(O)ccc(c23)C(=O)N1Cc1ccco1 | . | . | . | 102.3 | 7.4 | . | .
CN(CCC#N)C(=O)COC(=O)/C=C/c1cccs1 | i | 0.98 | . | 101.1 | -10.1 | -40.7 | 80.7
O=C(O)c1cccc(Nc2ncnc3ccccc23)c1 | i | 0.79 | -0.5 | 102.3 | -0.3 | -37.0 | 113.1
CCOC(=O)N1CCN(S(=O)(=O)c2ccc(OC)c(Cl)c2Cl)CC1 | i | 1.02 | -1.7 | 104.3 | -9.3 | -173.7 | 91.2
CCN(CC(=O)Nc1ccccc1Br)Cc1nc2ccccc2c(=O)[nH]1 | i | 0.94 | -1.9 | 107.0 | -6.5 | -66.7 | 64.8
CCOc1ccc2c(c1)C(c1ccc(C)cc1)=NNC(c1ccc(OC)cc1)=N2 | i | 0.77 | -3.5 | 100.2 | -2.3 | . | .
COc1ccc(C(=O)NC2CCCCC2)cc1S(=O)(=O)N1CCCC1 | i | 0.98 | -1.0 | 97.8 | 7.0 | . | .
O=C(Nc1cccc2ccccc12)N1CCN(c2ccccc2)CC1 | i | 1.01 | -1.3 | 101.4 | 7.1 | 30.8 | 126.5

# (continued)
mol	HSV replic up	HSV replic up primary fold	GALR2 ag	RGS16-Gao HTS	PKD1 inh	Insulin prom inh	Insulin prom inh cell count
O=C(Nc1ccc(Br)cc1)C1CC=CCC1C(=O)OCC1CCCO1 (stereo unspecified)	i	0.83	-2.2	94.9	-10.8	5.6	41.0
O=C(Cn1cc(C(F)(F)F)ccc1=O)N1CCN(S(=O)(=O)c2ccccc2)CC1	i	0.9	-0.2	92.2	8.9	-73.3	102.8
C=CCNc1nc(-c2ccccc2)nc(-n2ccnc2)n1	i	0.87	-0.3	106.7	9.7	.	.
CCOC(=O)c1ccc(NC(=S)NC2CCCC2)cc1	i	0.83	-1.7	100.7	9.9	10.0	152.1
COc1ccccc1NC(=O)COc1ccccc1	i	0.98	-0.8	85.5	-5.0	11.1	76.2
O=C(CN1C(=O)NC2(CCCCC2)C1=O)N1CCc2ccccc2C1	i	0.94	.	105.7	-3.6	.	.
CCCOC(=O)C1C2C=CC(C2)C1C(=O)OCC(=O)c1ccccc1 (stereo unspecified)	i	0.99	0.0	97.4	-8.0	-12.7	74.7
Cc1ccc(-c2nc3cccnc3s2)cc1NS(C)(=O)=O	i	0.85	.	-19.1*	-5.4	.	.
O=C1C=C(c2ccccc2)CC(/C=C/c2ccccc2)C1 (stereo unspecified)	i	0.9	-1.3	91.9	-10.5	14.3	159.6
COc1ccc(-c2nc(C(N)=O)c3[nH]c(=O)n(-c4cccc(C)c4)c3n2)c(OC)c1	i	0.79	2.0	102.6	-12.2	.	.
C(=C\c1ccccc1)/CSc1ccccn1	i	0.96	.	108.6	-5.3	-27.3	90.4
CC(=O)NC(CCS(C)(=O)=O)C(=O)Nc1cccc(Cl)c1Cl (stereo unspecified)	i	0.73	-0.3	103.6	-12.7	.	.
CN(CC(=O)NCc1ccncc1)S(=O)(=O)c1ccc(F)cc1	i	1.05	0.1	135.7	0.4	14.3	81.7
O=c1oc(-c2cccs2)nc2sc3c(c12)CCCCC3	i	0.77	-0.3	.	-9.5	.	.
COCCNC(=O)C(c1ccncc1)N(C(=O)Cn1nnc2ccccc21)c1ccc(OC)cc1 (stereo unspecified)	i	0.91	0.7	99.4	-3.6	11.1	98.5
COc1nccnc1NS(=O)(=O)c1ccc(N=Cc2c(C)[nH]n(-c3ccc(C)c(C)c3)c2=O)cc1	.	.	-0.6	94.7	0.3	0.0	83.6
Cc1ccc(C(=O)N/N=C/C=C/c2ccccc2)cc1	i	0.95	.	99.6	1.4	.	.
O=C(Cn1cc2c(n1)CCCC2)N1CCOCC1	i	0.96	-5.1	103.6	3.9	.	.
O=C(CCc1nnc(Cc2ccc3c(c2)OCO3)o1)NC(c1ccccn1)C(F)(F)F (stereo unspecified)	i	0.98	.	101.7	-6.4	43.5	103.6
Cc1cc(C)nc(SCc2cn3ccccc3n2)n1	i	1.03	.	98.0	.	.	.
CC(C)C(=O)Nc1cccc(NC(=S)NC(=O)c2ccccc2Cl)c1	i	1.01	0.8	103.1	-15.1	17.1	46.1
CCOc1ccc(N2CC(C(=O)Nc3ccccn3)CC2=O)cc1 (stereo unspecified)	i	1.01	.	99.4	5.3	.	.
O=C1c2ccccc2C(=O)N1CCCCSc1nnc2ccccn12	i	1.01	-2.5	101.9	-6.1	.	.
COC(=O)c1sccc1NC(=O)CC1C(=O)NCCN1C(=O)Nc1ccc(F)cc1F (stereo unspecified)	i	0.72	.	97.0	.	.	.
CC(C)c1ccc(-n2nc3ccc(N)cc3n2)cc1	i	0.86	.	86.6	-6.6	.	.
CCCOC(=O)COC(=O)c1ccccc1NC(=O)c1ccccc1	i	0.87	-1.6	99.8	-5.5	12.5	147.0
Cn1c(C(=O)OC(C(=O)NC2CCCCC2)c2cccnc2)cc2sccc21 (stereo unspecified)	i	0.87	-0.7	100.9	0.8	i	85.8
Cc1cc(N2C(=O)C(=O)/C(=C(/O)c3ccc(F)cc3)C2c2cccc(Br)c2)no1 (stereo unspecified)	i	1.03	-2.3	99.6	7.3	.	.
C/C(=N\N=C\c1cccc(F)c1)c1nnn(-c2nonc2N)c1C	i	0.95	1.7	76.5	-14.1	-6.2	135.8
CC1CCCN(S(=O)(=O)c2cccc(-c3cn4cccnc4n3)c2)C1 (stereo unspecified)	.	.	0.1	98.7	0.0	-61.5	123.1
OCCN1CN=C(Nc2nc3ccccc3s2)NC1	i	0.84	-3.8	113.9	-4.0	.	.
Cc1ccc(/C=C/C(=O)N2CCN(S(=O)(=O)c3ccc(C)c(C)c3)CC2)o1	i	0.85	-0.2	93.8	-11.1	14.3	71.9
O=C(Nc1ccc(C(F)(F)F)cc1)c1ccccc1Br	i	0.81	.	104.8	3.2	-33.3	87.5

# A draw from above in order of SMILES length, smallest number first:
mol	HSV replic up	HSV replic up primary fold	GALR2 ag	RGS16-Gao HTS	PKD1 inh	Insulin prom inh	Insulin prom inh cell count
O=C(Nc1ccc(C(F)(F)F)cc1)c1ccccc1Br	i	0.81	.	104.8	3.2	-33.3	87.5
O=C1c2ccccc2C(=O)N1CCCCSc1nnc2ccccn12	i	1.01	-2.5	101.9	-6.1	.	.
C/C(=N\N=C\c1cccc(F)c1)c1nnn(-c2nonc2N)c1C	i	0.95	1.7	76.5	-14.1	-6.2	135.8
Cn1c(C(=O)OC(C(=O)NC2CCCCC2)c2cccnc2)cc2sccc21 (stereo unspecified)	i	0.87	-0.7	100.9	0.8	i	85.8
COC(=O)c1sccc1NC(=O)CC1C(=O)NCCN1C(=O)Nc1ccc(F)cc1F (stereo unspecified)	i	0.72	.	97.0	.	.	.
Cc1cc(N2C(=O)C(=O)/C(=C(/O)c3ccc(F)cc3)C2c2cccc(Br)c2)no1 (stereo unspecified)	i	1.03	-2.3	99.6	7.3	.	.
